Rango release inh: qHTS Assay for Inhibitors of RanGTP induced Rango (Ran-regulated importin-beta cargo) - Importin beta complex dissociation. Snurportin-1 (Homo sapiens) + GTP-binding nuclear protein Ran (Homo sapiens) + Importin …. Biochemical FRET Rango-importin beta, RanGTP-induced dissociation. Potency, µM (highest dose often 46.1 µM), for inactives: at the top dose activity change, negative = inhibition. actives 0.071% (n = 340,000); active means falling FRET ratio curve, often poorly fitted, with flat reads before Ran was added; inconclusive means other falling curves, or compound fluorescence or quenching; inactive means flat or rising ratio curve;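 further: potency means the concentration at half of the fitted maximal effect; % of control where 0% means no effect; nearly all actives have a fitted effect of over 45% in size; -100% = wells without RanGTP and RCC1; the record marks most hits as doubtful in a second field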
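Two FRET readings bracket the reaction: one 5 min after compound meets Rango–importin beta, another 45 min after RanGTP-RCC1 (0.6 uM Ran, 0.2 uM RCC1, 2 mM GTP) is added. Only the second defines inhibition.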
Rango-impB inh: qHTS Assay for Inhibitors of Rango (Ran-regulated importin-beta cargo) - Importin beta complex formation. Importin subunit beta-1 (Homo sapiens), Q14974. Rango CFP/YFP FRET sensor + importin beta, 45 min. Potency, µM (top dose mostly 92.2 µM), for inactives: at the highest dose inhibition of complex formation. actives 0.031% (n = 340,000). AID 540263, 2011; active = rising FRET ratio curve, often small or poorly fitted; inconclusive = mostly compound fluorescence or quenching in the first reads; inactive = flat curves in all reads;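 further: potency means the concentration at half of the fitted maximal effect; 0% = DMSO wells and 100% = buffer wells lacking importin beta; nearly all actives have a fitted effect of over 15% in size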
Target sequence (Q14974 whole entry, looked up): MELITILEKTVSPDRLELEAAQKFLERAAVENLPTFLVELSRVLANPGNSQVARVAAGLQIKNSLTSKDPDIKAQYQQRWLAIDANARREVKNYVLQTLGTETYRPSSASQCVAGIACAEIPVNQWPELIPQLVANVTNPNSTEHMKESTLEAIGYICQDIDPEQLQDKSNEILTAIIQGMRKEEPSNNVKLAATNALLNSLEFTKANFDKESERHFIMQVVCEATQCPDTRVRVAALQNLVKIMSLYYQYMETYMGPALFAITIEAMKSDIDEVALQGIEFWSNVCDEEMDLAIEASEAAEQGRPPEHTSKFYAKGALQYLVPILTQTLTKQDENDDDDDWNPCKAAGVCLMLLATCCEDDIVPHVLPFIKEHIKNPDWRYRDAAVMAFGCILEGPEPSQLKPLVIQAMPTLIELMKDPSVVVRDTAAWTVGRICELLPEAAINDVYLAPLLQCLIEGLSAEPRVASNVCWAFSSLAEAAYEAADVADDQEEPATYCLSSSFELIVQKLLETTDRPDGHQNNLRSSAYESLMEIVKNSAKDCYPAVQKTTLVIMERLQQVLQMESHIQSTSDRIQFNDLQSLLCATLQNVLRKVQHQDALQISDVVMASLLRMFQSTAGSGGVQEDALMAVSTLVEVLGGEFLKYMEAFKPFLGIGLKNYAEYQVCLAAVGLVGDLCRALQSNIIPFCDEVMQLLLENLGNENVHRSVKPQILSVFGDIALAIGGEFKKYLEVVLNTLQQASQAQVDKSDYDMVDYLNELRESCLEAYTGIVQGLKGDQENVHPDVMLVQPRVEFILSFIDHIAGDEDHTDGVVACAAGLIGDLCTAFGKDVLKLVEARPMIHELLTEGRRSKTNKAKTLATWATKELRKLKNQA
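FRET biosensor (snurportin 1 IBB flanked by EYFP and cerulean), 50 nM, with compound 5 min, then 0.125 microM importin beta in PBS, 1 mM DTT, 0.02% Tween-20, 0.1% BSA. CFP/YFP ratio read after 45 min at room temperature; pre-read flags interference.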
miR-21 FLuc: qHTS Assay for Modulators of miRNAs and/orActivators of miR-21; 340,000 tested, under 10 active; HeLa miR-21 FLuc reporter, luciferase, 48 h; Potency, µM (doses to about 38.3 µM), for the others: top-dose reporter change, positive = more light; active = well fitted rising curve with a large enough effect; inconclusive = small, poorly fitted or top-dose-only effect; inactive = no such curve, though single readings can be large or run the other way;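 further: % of control where 0% means no effect; miR-21 action dims this reporter so a rising signal means less miR-21 action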
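HeLa cells endogenously expressing miR-21, stably carrying CMV-driven firefly luciferase with a downstream miR-21 binding site, 2000 cells/well. Titrations up to approximately 40 uM, 48 hours; luciferase luminescence read.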
GLA inh pH 4.5: qHTS Assay for Inhibitors of Human alpha-Galactosidase at pH 4.5; Alpha-galactosidase A (Homo sapiens), P06280; purified enzyme, 4-MU-alpha-Gal fluorescence, pH 4.5; activity change, negative = inhibition, % at 105 µM; 230,000 tested, under 10 active; AID 1467, 2008; inconclusive = small, poorly fitted or top-dose-only inhibition, or a rising curve; inactive = flat fitted curve, though single readings scatter; no compound was filed as active;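 further: 0% = full activity with enzyme and -100% = basal without enzyme; dose as in the result columns while the protocol names 77 µM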
The depositor's hits bear a star; ? = inconclusive; . = no result given; & = joins results of further samples. The list is partial; the hit share may differ from the screen's.

Rango release inh | Rango-impB inh | miR-21 FLuc | SMILES | GLA inh pH 4.5
-3.2% | -1.1% | -2.4% | CC1(C)Cc2cccc(OCC(=O)Nc3cccnc3)c2O1 | 5.5
30.1% | -4.6% | -4.0% | COc1ccc(CN(C)C(=O)Cc2c[nH]c3ccccc23)c(OC)c1OC | .
-2.8% | -1.8% | -66.2% | COc1ccc(/C=C/c2ccncc2)cc1OC | -5.2
4.1% | 0.7% | 0.0% | Fc1ccc(CSc2nnc(Cc3sc(-c4ccccc4)nc3-c3ccccc3)o2)cc1 | -2.9
-4.3% | 3.2% | 9.9% | CC(=O)N(Cc1cccc(Br)c1)c1ccc(N2CCOCC2)c(Cl)c1 | .
19.9% | -0.1% | 0.8% | CC(=O)Nc1ccc(S(=O)(=O)N2CCC(C(=O)N[C@@H](C)C(=O)NC3CCCC3)CC2)cc1 | .
-8.8% | -0.7% | -2.5% | O=C(NCc1cccnc1)C1CCN(S(=O)(=O)c2cccs2)CC1 | 2.1
0.4% | 0.2% | -53.8% | C/C(=N/NC(=O)c1ccco1)c1cccc(NC(=O)c2ccc(C)s2)c1 | -12.0
-27.4% | 3.1% | . | COc1ccc(CNC(=O)C(=O)N2CCC3(CC2)OCCN3S(=O)(=O)c2ccc(C)cc2)cc1 | .
2.2% | 0.4% | -17.0% | CC1CCCCN1c1nnc(N)s1 (stereo not given) | .
-1.1% | -1.3% | . | COc1ccc(NS(=O)(=O)c2cccc(C(=O)N(C)Cc3ccc(SC)cc3)c2)cc1 | .
0.3% | 0.4% | -2.3% | CC(C)c1ccccc1NC(=O)COC(=O)Cc1c[nH]c2ccccc12 | -25.4
-14.0% | -0.2% | . | COc1cc(C(=O)Nc2cc(C(F)(F)F)ccc2N2CCOCC2)ccc1OCC(=O)N1CCOCC1 | .
-14.1% | 0.9% | . | Cn1c(SCC(=O)N2CC(=O)Nc3ccccc32)nnc1C(F)(F)F | .
-18.7% | -2.4% | -7.3% | C=CCn1c(COc2cccc(C)c2)nnc1SCC(=O)NC(=O)NCc1ccco1 | 5.5
-16.8% | -6.2% | -57.7% | CNc1cc(CSc2ccc(Cl)cc2)nc(C)n1 | 8.0
4.0% | -4.6% | 12.6% | Cc1cccc(C)c1NC(=O)c1c(C)nn(-c2ccccc2)c1Cl | -1.5
-3.8% | -0.1% | . | COc1ccc(/C=C/C(=O)OCC(=O)N(C)CC(=O)Nc2ccc(C)cc2)c(OC)c1 | .
1.8% | -3.2% | -7.2% | CN1C(=O)CC(N2CCC(c3nc4ccccc4[nH]3)CC2)C1=O (stereo not given) | -8.9
2.0% | -1.0% | -15.3% | O=C(Nc1ccc(N2CCCC2)cc1)c1ccc(Br)cc1 | .
14.1% | 0.5% | -4.3% | N#C/C(=C\c1cc([N+](=O)[O-])c(N2CCCCC2)cc1N1CCCCC1)c1nn(-c2ccccc2)c(N)c1C#N | -6.9
-15.8% | -0.3% | -2.8% | O=c1nc(SCc2cccc(C(F)(F)F)c2)nc2ccccn12 | 4.3
7.6% | -1.3% | 1.2%&-30.7% | COc1ccccc1NC(=O)Cn1nc(C)n2cccc2c1=O | .
14.0% | 0.5% | -58.9% | CN(C)c1ccc(C(=S)NC2CCCCC2)cc1 | 3.7
-16.4% | -0.8% | 28.0% | CCC(C)(C)NC(=S)Nc1ccccc1C | 10.0
16.4µM* | ? | 0.8% | COc1ccccc1C1CC(c2ccco2)=NN1c1ccccc1 (stereo not given) | 23.5
21.4% | ? | 9.9% | O=S(=O)(c1ccc(Oc2ncnc3scc(-c4ccccc4)c23)cc1)N1CCOCC1 | 8.3
-8.7% | -1.2% | 0.6% | CCOC(=O)CCCNC(=O)COC(=O)[C@@H]1CCCN1S(=O)(=O)c1ccc(Cl)cc1 | 11.2
-6.7% | -0.7% | -2.5% | COc1ccc2nc(N/C(N)=N/C(=S)Nc3c(C)cccc3C)nc(C)c2c1 | 0.7
18.3% | -2.2% | -1.1% | CC(NC(=O)C1CCN(S(=O)(=O)c2cccc3cccnc23)CC1)c1ccccc1 (stereo not given) | .
15.0% | 6.6% | -25.7% | O=[N+]([O-])c1ccc2nc(SCc3ccccc3Cl)sc2c1 | -26.8
-1.3% | 0.0% | -21.7% | COc1ccc(NC(=O)/C=C/c2ccc3c(c2)OCO3)cc1 | 12.7
-4.3% | -2.0% | . | CCCCCCCCNS(=O)(=O)CCNC1CCCCC1 | .
-19.3% | -2.3% | 3.4% | N#Cc1ccc(OCC(=O)Nc2cc(S(=O)(=O)N3CCCCC3)ccc2N2CCCCC2)cc1 | -1.9
? | 2.7% | -74.1% | COc1ccc2nc(Nc3ccc4c(c3)OCO4)sc2c1 | -3.7
-2.1% | 0.8% | . | O=C(COC(=O)CC1CCCC1)Nc1ccccc1[N+](=O)[O-] | .
-18.4% | 4.5% | -4.7% | CSc1cccc(NC(=O)C2CC(=O)N(Cc3ccccc3)C2)c1 (stereo not given) | .
-5.3% | 0.7% | 0.2% | O=C(Nc1ccc(Oc2ccccc2)nc1)C1CCCCN1Cc1ccc(OCCO)cc1 (stereo not given) | .
? | -0.7% | -13.3% | Fc1ccc(-c2csc3ncnc(N4CCN(Cc5ccccc5)CC4)c23)cc1 | .
30.1% | ? | -3.9% | CC(Oc1ccccc1Cl)C(=O)N1CCOCC1 (stereo not given) | 3.1
10.7% | 0.4% | -11.9% | CC(C)C(=O)N1c2ccccc2NC2=C(C(=O)CCC2)C1c1ccc(N(C)C)cc1 (stereo not given) | 2.1
-23.5% | 6.2% | -1.3% | Cc1c(NC(=S)Nc2ccccc2)c(=O)n(-c2ccccc2)n1C | 3.8
-11.9% | ? | -0.6% | CCC1CCCCN1CCCNC(=O)c1ccc(CS(=O)(=O)c2ccc(Br)cc2)o1 (stereo not given) | .
1.5% | -0.2% | -10.4% | CCc1cc(C(=O)N=Nc2c(O)[nH]c3c(Br)cc(Br)cc23)c2ccccc2n1 | -12.6
-11.8% | 1.1% | -1.2% | CCN1CCN(C(c2ccc(F)cc2)c2nnnn2Cc2ccc3c(c2)OCO3)CC1 (stereo not given) | 0.7
23.5% | -5.0% | 18.6% | O=[N+]([O-])c1ccc2ncnc(Nc3ccc4c(c3)OCCO4)c2c1 | -5.2
-17.8% | 1.2% | . | COc1ccc(NC(=O)CN(C)C(=O)Cc2ccc(-c3ccccc3)cc2)cc1 | .
-8.2% | -0.8% | -1.7% | O=C(N/N=C/c1ccc(Br)s1)c1cccc([N+](=O)[O-])c1 | -4.7
-0.1% | 1.8% | -2.3% | Cc1ccc(C(NC(=O)N2CCN(C)CC2)C(Cl)Cl)cc1F (stereo not given) | 1.6
-7.6% | 2.7% | -40.2% | Cc1nn(C)c(C)c1CNC(=O)Nc1cccc(Cl)c1 | 1.1
7.1% | 3.4% | -11.1% | Fc1ccc(NC(=S)Nc2cccc3cnccc23)cc1 | 2.2
16.2% | 0.0% | -7.9% | CC(=O)NCCCc1nc2ccccc2n1Cc1cc(C)ccc1C | 6.4
1.3% | 0.6% | -22.9% | COc1ccccc1CNC(=O)CN1CCC(n2cnc3cc(F)ccc32)CC1 | 4.1
6.2% | 2.2% | . | Cc1ccsc1CN(C)CC(=O)Nc1ccccc1C(=O)NC1CC1 | .
-7.6% | 0.6% | -1.2% | O=C(CN1CCSC1=NCc1ccccc1)c1ccc(Cl)cc1 | 3.1
-13.2% | -0.1% | -50.7% | COc1cccc(-c2nnc(-c3ccccc3[N+](=O)[O-])o2)c1 | -10.1

(list continues)
Rango release inh | Rango-impB inh | miR-21 FLuc | SMILES | GLA inh pH 4.5
-9.1% | -1.6% | -13.7% | CC1CCN(C(=O)CSc2nnc(N)s2)CC1 | .
12.9% | 0.6% | -18.7% | O=C(Nc1ccccc1C(=O)OCC(=O)N1CCc2ccccc2C1)c1ccco1 | -4.6
-12.6% | 3.9% | 27.8% | C=CCc1cccc(/C=N/NC(=O)CCC(=O)Nc2ccc(C)cc2)c1O | -0.5
-7.0% | -1.6% | -13.4% | COc1ccc(OCCC(=O)Nc2ccccc2)cc1 | .
-5.4% | 0.6% | 0.0% | O=C(Cn1cnc([N+](=O)[O-])n1)N/N=C/c1cccc(Cl)c1 | -7.8
-11.5% | -0.4% | -48.8% | CC(=O)N1CCN(c2nc3ccc(Br)cc3s2)CC1 | .
-11.7% | -1.3% | . | O=C(Cc1ccccc1)c1ccc(O)cc1 | .
-5.4% | -1.3% | -0.5%&-3.0% | CCC(=O)N1CCc2cc(Br)cc(S(=O)(=O)CCC(=O)NCCc3ccccc3)c21 | 2.3

One compound at a time, from the list above.
Profile of O=C(Cn1cnc([N+](=O)[O-])n1)N/N=C/c1cccc(Cl)c1 → Rango release inh: -5.4%; Rango-impB inh: 0.6%; miR-21 FLuc: 0.0%; GLA inh pH 4.5: -7.8
Profile of C=CCc1cccc(/C=N/NC(=O)CCC(=O)Nc2ccc(C)cc2)c1O → Rango release inh: -12.6%; Rango-impB inh: 3.9%; miR-21 FLuc: 27.8%; GLA inh pH 4.5: -0.5

The listing continues.
Rango release inh | Rango-impB inh | miR-21 FLuc | SMILES | GLA inh pH 4.5
? | ? | -0.8% | CCOC(=O)C1CCN(c2cc3c(cc2NC(=O)c2cc(OC)ccc2Br)n(C)c(=O)n3C)CC1 | .
-15.2% | 4.4% | -13.2% | NC(=O)c1cc(-c2csc(NCCc3ccccc3)n2)ccc1O | .
-1.5% | -0.2% | . | O=S(=O)(Nc1cccc(-c2ccc3nncn3n2)c1)c1cc(F)ccc1F | .
5.2% | -0.2% | 0.8% | Cc1nc2c(-c3ccccc3)c(C)nn2c(C)c1CCC(=O)NC(C)CCc1ccco1 (stereo not given) | -10.8
16.9% | 2.9% | -3.3% | Cc1cc(C)c(S(=O)(=O)N2CCCC(C(=O)NC3CC3)C2)c(C)c1 (stereo not given) | .
-2.8% | -0.3% | -15.1% | CC(NC(=O)COc1cccnc1[N+](=O)[O-])c1ccc(Cl)cc1 (stereo not given) | .
-3.9% | 6.7% | 2.5% | Cc1ccc2nc(-c3ccccc3)c(-c3ccccc3)nc2c1 | 1.5
0.9% | 0.9% | -19.9% | CCCCn1nnnc1SCC(=O)c1ccc(C)c(C)c1 | 4.0
-0.4% | 1.4% | -65.3% | CCOC(=O)c1cccnc1SCc1cc(=O)n2ccccc2n1 | -1.6
1.0% | -1.4% | 5.7% | O=C(c1ccc([N+](=O)[O-])cc1)N(Cc1ccc(Br)cc1)N1C(=O)CCCC1=O | -6.8
0.7% | -0.6% | . | COc1cccc(NC(=O)C(=O)NCC2CCCN2S(=O)(=O)c2ccccc2)c1 (stereo not given) | .
26.7% | -1.0% | . | CC[C@@]12C(=O)N(c3cccc(Cl)c3)C(=O)N1[C@H](c1cccc(C)c1)[C@@H]1C(=O)N(Cc3ccccc3)C(=O)[C@@H]12 | .
-6.7% | 1.5% | -20.7% | CSc1nc2ccc(NC(=O)C3CC(=O)N(Cc4ccco4)C3)cc2s1 (stereo not given) | 0.4
1.0% | -1.2% | 0.0% | CN(C)N1C(N)=C(C#N)C(c2ccc3c(c2)OCO3)C2=C1CC(C)(C)CC2=O (stereo not given) | .
0.1% | -0.4% | . | CCS(=O)(=O)c1ccc2oc(SCC(=O)c3c(N)n(C4CC4)c(=O)[nH]c3=O)nc2c1 | .
-2.6% | 3.3% | . | O=C(Nc1cc(Cl)ccc1N1CCOCC1)C1CC1 | .
10.7% | -0.9% | . | Cc1ccccc1C(=O)N1CCC(C(=O)OCc2ccccc2Cl)CC1 | .
9.7% | -2.4% | -6.7% | COc1ccc(C(C)NC(=O)c2cccc([N+](=O)[O-])c2)cc1OC (stereo not given) | 1.1
